# Compound activity (PubChem BioAssay)
# GIV Gai3 FP: inhibitors of GIV GBA-motif binding to rat Galpha-i3; P08753; Galpha-i3/FITC-GIV peptide fluorescence polarization, 90 min; active compounds read low; scaled: aluminum fluoride 0%, vehicle 100%; percent of control (FP), % (no concentration beside the values); 0.42% of 210,000 active; AID 1224905;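 active means replicate mean at 85% of control or lower, very high polarization wells dropped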;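 further: wells of about 15 µL received 100 nL stock; the first replicate is given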
# Target sequence (P08753 whole entry, looked up): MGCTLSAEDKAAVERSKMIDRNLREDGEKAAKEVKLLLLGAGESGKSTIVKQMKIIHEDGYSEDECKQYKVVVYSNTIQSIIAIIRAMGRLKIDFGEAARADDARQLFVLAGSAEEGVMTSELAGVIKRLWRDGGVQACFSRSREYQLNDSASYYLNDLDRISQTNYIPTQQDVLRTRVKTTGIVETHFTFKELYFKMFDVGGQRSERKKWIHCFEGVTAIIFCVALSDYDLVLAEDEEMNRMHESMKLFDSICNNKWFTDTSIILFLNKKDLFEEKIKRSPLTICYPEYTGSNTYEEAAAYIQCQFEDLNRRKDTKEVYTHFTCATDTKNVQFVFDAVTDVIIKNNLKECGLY
# * hit, by the source's call. These rows are one share of the data. The share of hits here may be higher or lower than overall.
Structure	GIV Gai3 FP
COc1ccc(C)cc1NC(=O)/C=C/C(=O)O	103.1
CCCN1C(=O)COc2ccc(-c3noc(C(C)Oc4ccccc4)n3)cc21 (stereo not drawn)	100.3
Cc1cc(NS(=O)(=O)c2cc(-c3noc(C(=O)N4CCCC4)n3)ccc2C)no1	107.3
Cc1ccc(-c2ccc(NC3CCCC3)nn2)cc1S(=O)(=O)N1CCOCC1	102.0
Cc1ccc(S(=O)(=O)NC2CCN(C(=O)c3cnccn3)CC2)cc1	101.7
c1cc(-c2noc(CCc3nnc4ccc(N5CCN(C6CCCCC6)CC5)nn34)n2)ccn1	106.3
CCc1nnc(NC(=O)CCc2nc(CSc3nc4ccc(Cl)cc4[nH]3)no2)s1	106.3
Cc1cccc(CN=C2Nc3ccccc3NC23CCC(C)CC3)c1 (stereo not drawn)	100.3
CCNS(=O)(=O)c1ccc2c(c1)N(Cc1noc(CC)n1)C(=O)CO2	103.9
Cc1ccc(-c2noc(C3CC3)n2)cc1S(=O)(=O)NC(C)C(=O)N1CCc2ccccc21 (stereo not drawn)	101.4
Cc1ccc(-n2[nH]c(C)c(C=Nc3ccc(Br)cn3)c2=O)cc1C	105.6
NC(=O)C1CCN(Cn2nc(-c3cccc(F)c3)n(-c3ccccc3)c2=S)CC1	107.3
COc1ccc(/C=C/C23NC(=O)CCN2c2ccccc2C3(C)C)cc1OC (stereo not drawn)	115.1
CN1C(=O)c2ccccc2Sc2cc(-c3noc(CNS(=O)(=O)c4ccccc4)n3)ccc21	96.7
COc1nc(NCc2cccnc2)nc(N2CCC(C)CC2)n1	104.7
CCc1nc(-c2ccc(C)c(S(=O)(=O)N3CC=C(c4ccccc4)CC3)c2)no1	105.5
COc1ccc(CNC(=O)c2ccc(Oc3ccnc(-c4cccc(F)c4)n3)cc2)c(OC)c1	102.5
COc1ccc2c(c1)-c1ccccc1S(=O)(=O)N2S(=O)(=O)c1ccc(C)cc1	108.3
Cn1nnc2c(Nc3cccc(Br)c3)ncnc21	103.7
CC1(C)CC(=O)C2=C(C1)c1c(ccc3ncccc13)NC2c1ccc(Br)cc1 (stereo not drawn)	103.1
CC(=O)n1cc(/C=c2\sc3nc4c(C)c(C)ccc4n3c2=O)c(-c2ccc(F)cc2)n1	105.2
CC(=O)C1=NN(c2ccccc2Cl)C2(S1)c1ccccc1C(c1ccc(Cl)cc1)=NN2c1ccccc1 (stereo not drawn)	104.1
Cc1nc(-c2cc(S(=O)(=O)NCc3ccccc3Cl)c(C)s2)cs1	104.9
CC(C)C(=O)Oc1ccc2c(c1)C=CC1(O2)N(C)c2ccccc2C1(C)C (stereo not drawn)	113.3
CCC(=O)NC1C(OC(C)=O)OC(COC(C)=O)C(OC(C)=O)C1OC(C)=O (stereo not drawn)	108.9

# 2 entries drawn at random from the list so far:
Structure	GIV Gai3 FP
COc1ccc(CNC(=O)c2ccc(Oc3ccnc(-c4cccc(F)c4)n3)cc2)c(OC)c1	102.5
c1cc(-c2noc(CCc3nnc4ccc(N5CCN(C6CCCCC6)CC5)nn34)n2)ccn1	106.3

# Other results follow.
Structure	GIV Gai3 FP
CCOC(=O)c1cnn(-c2ccc(C(=O)N3CCN(C4CCCCC4)CC3)cc2)c1N	118.4
Cc1ccc2c(c1)NC(=O)c1cc(S(=O)(=O)N3CCC(C)CC3)ccc1O2	106.2
CCOc1ccc(N/C(SCc2cccc(F)c2)=C(/C#N)C(=O)NCc2ccc3c(c2)OCO3)cc1	112.1
CC(=O)c1c(C)oc2ccc(N(C(=O)c3ccncc3)S(=O)(=O)c3cccc([N+](=O)[O-])c3)cc12	108.2
O=C(CCN1C(=O)C2C3C=CC(C3)C2C1=O)Nc1cc(C(F)(F)F)cc(C(F)(F)F)c1 (stereo not drawn)	105.1
CCn1c(CCc2ccccc2NS(=O)(=O)c2cc(F)ccc2F)nc2ccccc21	101.2
N=C1S/C(=C/c2ccc(-c3ccccc3C(=O)O)o2)C(=O)N1c1nccs1	130.5
Brc1ccc(OCCSc2nc3ccccc3[nH]2)cc1	107.3
CCC1=NS(=O)(=O)c2cccnc2N1c1ccc2c(c1)OCCO2	104.6
CCOc1ccccc1CNC(=O)C1Cc2ccccc2CN1S(=O)(=O)c1ccc(C)cc1 (stereo not drawn)	105.3
CCc1cc(-c2csc(S(=O)(=O)NCCCN3CCC(C)CC3)c2)on1	104.6
O=C1CCSc2c1cccc2C(=O)NCCCN1CCC(N2CCCCC2)CC1	110.5
CCC(=O)Nc1cccnc1-c1ccc(C(=O)Nc2ccc(Br)cc2)cc1	105.2
Cc1c(C#N)c2nc3c(c(-c4ccccc4)c2n1Cc1ccccc1)CCC3	109.2
CCCCOc1ccc2c3c(c(=O)oc2c1)CCCC3	107.9
CCc1ccc(N2C(=O)C3C4c5ccccc5C(C(C)=O)(c5ccccc54)C3C2=O)cc1 (stereo not drawn)	103.3
CCOc1cc(C(=O)Nc2c3c(nn2-c2ccc(OC)cc2)CS(=O)(=O)C3)cc(OCC)c1OCC	110.8
O=C(CCCCCn1c(=S)[nH]c2ccccc2c1=O)NC12CC3CC(CC(C3)C1)C2	108.0
c1ccc2c(c1)[nH]c1nc(SCCCN3CCCCC3)nnc12	111.8
N#CC(C#N)=C1NC2(CCCC2)Cc2ccccc21	133.2
CCOC(=O)C1=C(c2ccccc2)NC(=S)NC1c1ccc2c(c1)OCO2 (stereo not drawn)	106.1
CCCNC(=O)N1CCCN(S(C)(=O)=O)CC1	105.0
O=C(NCc1nc2cccnc2n1Cc1ccccc1)c1ccncc1	116.5
Nc1nnc(SCC(=O)Nc2cc(C(F)(F)F)cc(NC(=O)CSc3nnc(N)s3)c2Cl)s1	106.6
Cc1cc(-c2c(C)sc(C)c2S(=O)(=O)Nc2ccc(C(C)C)cc2)n[nH]1	98.0
Cc1cccc2c1NC(C)(C)c1ssc(=S)c1-2	109.4
CCCn1c(CCc2ccccc2NS(=O)(=O)c2cnn(CC)c2)nc2ccccc21	101.8
Cc1cccc(NC(=O)c2ccc3nnc(SCC(=O)Nc4ccc(C(C)C)cc4)n3c2)c1	104.8
CC(=O)Nc1ccc(Nc2cc(C)nc(Nc3ccc(NC(C)=O)cc3)n2)cc1	107.7
O=[N+]([O-])c1cccc(C2=Nn3c(Cc4ccccc4)nnc3SC2)c1	105.0
O=C(Nc1ccc(-c2noc(COc3ccccc3Cl)n2)cc1)c1cccs1	106.2
Cc1cc(C)cc(NC(=O)c2ccc3ncc4c(=O)n(-c5ccc(F)cc5)[nH]c4c3c2)c1	106.9
COC(=O)c1ccc(OCCOCCn2c(-c3ccc(Cl)cc3)nc3ccccc3c2=O)cc1	103.9
CSC1=NC(=Nc2cccc(C(F)(F)F)c2)C2(CCCCC2)N1c1cccc(Cl)c1	106.3
Cc1cn2c(S(=O)(=O)NC3CCCCCC3)c(C(C)C)nc2s1	96.0
O=C(Nc1c2c(nn1-c1ccc([N+](=O)[O-])cc1)CS(=O)(=O)C2)c1ccc(C(=O)c2ccccc2)cc1	107.9
Cc1csc(C2CCN(C(=O)NCC(C)C)CC2)n1	101.6
O=c1nc2n(c3ccc(Cl)cc13)Cc1ccccc1-2	101.9
COc1cc2nc(/C=C/c3ccc4c(c3)OCO4)n(-c3ccc(C)cc3)c(=O)c2cc1OC	111.7
O=C(NCCCN1CCCCC1)C1CCN(c2ncc(-c3ccc(F)cc3)cn2)CC1	101.7
CCNc1cc(C)nc(N2CCN(C(=O)c3ccccc3C)CC2)n1	105.7
O=C(c1ccccc1F)N1N=C(C(F)(F)F)CC1(O)c1ccc(Cl)cc1 (stereo not drawn)	107.4
O=C1C(=O)N(c2ccc(F)cc2)C(c2ccc(F)cc2)/C1=C(/O)c1ccccc1 (stereo not drawn)	101.9
COc1cc(CN2CCCC2c2cc(C)on2)ccc1O (stereo not drawn)	128.5
CCOc1ncnc2c1sc1nc(N3CCOCC3)c3c(c12)CC(C)(C)OC3	110.5
N#CC1=C(N)C(C#N)(C#N)C(c2ccc(Br)cc2)C2CN(Cc3ccccc3)CC=C12 (stereo not drawn)	164.9
CCOC(=O)C1=CN(Cc2ccc(OC)c(OC)c2)C=C(C(=O)OCC)C1c1cc2c(cc1Br)OCO2	119.3
O=C(Nc1ccc2c(c1)CCC2)c1cc(-c2ccncc2)nc2ccccc12	106.0
COc1ccc(NC(=O)c2c(NC(=O)c3ccncc3)sc3c2CCCCC3)cc1	109.5
C=CCNC(=O)c1cc2c(n(-c3ccccc3)c1=O)CC(C)(C)CC2=O	121.7

# Next section.
Structure	GIV Gai3 FP
CCN(CC)CCNC(=O)C(C)C1CCN(S(=O)(=O)c2cccs2)CC1 (stereo not drawn)	104.5
CCCc1cc(Sc2ccc(NS(=O)(=O)c3ccc(Cl)cc3)cc2)n2ncnc2n1	112.5
CCc1ccc(S(=O)(=O)c2cnc(N3CCN(c4cc(Cl)ccc4C)CC3)nc2N)cc1	101.0
c1ccc(-c2noc(-c3ccc(NC4CCCC4)nc3)n2)cc1	99.2
O=C(CCc1nc(-c2ccc(N3CCCC3)cc2)no1)Nc1ccc(Br)cc1F	105.2
CCS(=O)(=O)c1nc2ccc(NS(=O)(=O)c3ccccc3)cc2s1	106.7
COc1cccc(-c2nn(C)c3sc(C(=O)OCCOc4ccccc4)cc23)c1	106.2
O=C(c1ccc(F)cc1)c1ccc(-c2nc3cc4ccccc4cc3nc2-c2ccccc2)cc1	113.2
Cc1ccc(C)c(S(=O)(=O)N2CCC3(CC2)NCCN=C3NCc2ccccc2)c1	102.7
O=S(=O)(c1ccc2c(c1)CCCC2)N1CCCN(c2nc3cccnc3s2)CC1	103.5
CCCCCCCNC(=O)c1ccc2c(c1)ncn2-c1cc(OC)c(OC)c(OC)c1	103.6
CCCS(=O)(=O)NCc1ccc2c(c1)N(C(=O)c1ccc(OC)cc1)CC2	99.7
Fc1ccc2c(c1)c1nc3ccccc3nc1n2Cc1cc(Cl)cc2c1OCOC2	105.4
COc1ccc(-n2c(=O)c3c(n4cnnc24)-c2ccccc2CC32CCCCC2)cc1	101.1
Cc1noc(C)c1C(=O)N1CCCC1c1cc(C(C)C)on1 (stereo not drawn)	98.5
N=C1S/C(=C\c2ccc(-c3ccc(F)c(Cl)c3)o2)C(=O)N1c1nonc1N	106.0
Cc1cc(-c2csc(S(=O)(=O)NCc3ccc(N(C)C)cc3)c2)on1	104.4
CSc1ccc(Cl)c(-c2nc(-c3ccc4oc(C)nc4c3)no2)c1	91.1
COc1ccc(Cl)cc1NS(=O)(=O)c1cc(-c2cc(C(F)(F)F)on2)sc1C	100.7
O=C(Nc1ccc(Cl)cc1C(F)(F)F)c1cc(S(=O)(=O)N2CCC3(CC2)OCCO3)ccc1F	107.9
O=S(=O)(c1cc(-c2nnc(C3CC3)o2)co1)N1CCN(c2ccccc2F)CC1	102.0
Cc1ccc(C)c(NC(=O)CCc2nc(CSc3nc4cc(C)ccc4o3)no2)c1	103.6
C=CCOc1ccc(C2CC(=O)Nc3c2cnn3-c2ccc3nnc(C)n3n2)cc1OC (stereo not drawn)	101.4
COc1cc(C(=O)N2c3ccccc3N3C(c4c(C)cc(C)cc4C)=NON23)cc(OC)c1OC	106.5
Cc1ccccc1OCc1nc2c3c(-c4ccccc4)c(-c4ccccc4)oc3ncn2n1	120.6

# Sorted by the number under GIV Gai3 FP (lowest first): six of the compounds above
structure,GIV Gai3 FP
Cc1ccc(-c2noc(C3CC3)n2)cc1S(=O)(=O)NC(C)C(=O)N1CCc2ccccc21 (stereo not drawn),101.4
CCc1ccc(N2C(=O)C3C4c5ccccc5C(C(C)=O)(c5ccccc54)C3C2=O)cc1 (stereo not drawn),103.3
CCOc1ccccc1CNC(=O)C1Cc2ccccc2CN1S(=O)(=O)c1ccc(C)cc1 (stereo not drawn),105.3
O=C(Nc1ccc2c(c1)CCC2)c1cc(-c2ccncc2)nc2ccccc12,106.0
CSC1=NC(=Nc2cccc(C(F)(F)F)c2)C2(CCCCC2)N1c1cccc(Cl)c1,106.3
CCOc1ncnc2c1sc1nc(N3CCOCC3)c3c(c12)CC(C)(C)OC3,110.5

# Other records
SMILES,GIV Gai3 FP
CCS(=O)(=O)N1CCC(c2noc(-c3ccccc3)n2)CC1,107.5
O=C(c1ccc(-c2nc(-c3ccccc3)no2)cc1)N1CCn2c1nc1ccccc12,102.8
O=c1ccc(-c2ccc3c(c2)OCO3)nn1CCc1nc(-c2ccccc2Cl)no1,103.0
COC(=O)c1nnn(-c2nonc2N)c1CN1CCN(C)CC1,108.7
CSc1nnc2c(n1)OC(c1ccc([N+](=O)[O-])cc1)Nc1ccccc1-2 (stereo not drawn),113.6
CCCCn1c(CNC(=O)c2cccs2)nnc1SC(C)C(=O)Nc1sc(C(=O)OCC)c(C)c1C(=O)OCC (stereo not drawn),113.1
CCOC(=O)c1c(S(=O)(=O)N2CCCC(C(=O)NCc3cccnc3)C2)c(C)n(CC)c1C (stereo not drawn),105.1
O=S(=O)(c1cc(-c2nnc(-c3ccccc3)o2)ccc1F)N1CCN(c2ccc(F)cc2)CC1,102.1
CC(=O)Nc1cnc(N2CCNCC2)c(C(=O)N(CC(C)C)CC(C)C)c1,97.1
Nc1nc(SCC(=O)N2CCCCCC2)n[nH]1,101.7
O=C(CC1(O)C(=O)N(Cc2ccc(Cl)cc2)c2ccccc21)c1cccs1 (stereo not drawn),115.0
CC(C)c1ccc(NC(=O)c2sc3nc4c(cc3c2N)C(=O)CC(C)(C)C4)cc1,110.2
O=C(C1CCN(c2nc(-c3ccc(Cl)cc3)no2)CC1)N1CCOCC1,105.4
O=C(NC1CC1)c1cc(N2CCCC2)n2nccc2n1,169.1
CCc1cc(C2CCCN2S(=O)(=O)c2ccc(C(C)C)cc2)on1 (stereo not drawn),106.7
Cc1ccc2nc(-n3nc(C)c4c3NC(=O)CC4c3ccc(Br)cc3)sc2c1 (stereo not drawn),103.1
O=C(O)c1ccc(N=c2oc3cc(O)ccc3cc2C(=O)Nc2ccc(F)c(Cl)c2)cc1,183.4
Clc1ccccc1CCNc1nc(-c2nnc(-c3ccccc3)o2)nc2ccccc12,104.1
O=C(CN1CCN(CCOCCO)CC1)N1c2ccccc2Sc2ccc(C(F)(F)F)cc21,112.9
Cc1cccc(NC(=O)c2ccc(N3CC4CC(C3)c3cccc(=O)n3C4)c(NC(=O)Cc3c(F)cccc3Cl)c2)n1 (stereo not drawn),108.5
COc1ccc(C2Nc3ccccc3C(=O)N2Cc2ccccc2)cc1Cn1cc([N+](=O)[O-])cn1 (stereo not drawn),99.6
